# Source: PubChem (National Center for Advancing Translational Sciences (NCATS))
# CtBP-E1A inh = blocks the CtBP interaction with E1A; 0.49% of 340,000 active; activity change, % (test concentration not listed); AlphaScreen GST-E1A/His-CtBP binding, 1536-well; stronger effect = lower value; control for the full effect not named in the record; in the data active means activity change below about -65%; inconclusive means about -30% to -65%; inactive means above about -30%; note: % is set by controls: 0 for no effect and ±100 for the full control effect; compound concentration not given in the record
#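 AlphaScreen with 125 nM GST-E1A and 125 nM His-CtBP (5X stocks) in Tris pH 8.0, 300 mM NaCl, BSA, Tween 20, TCEP. Compounds preincubated 2 h at 37 deg C, then glutathione donor/nickel acceptor beads added for 1 h at 37 deg C in dark.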
# TRPV1 PAM = potentiators of human vanilloid receptor 1 (TRPV1) | TRPV1-expressing cells, Fluo-8 calcium influx, capsaicin EC20 potentiation; host cell line not named in the record; control for the full effect not named in the record | potentiation, % at 8.33 µM | 0.02% of 320,000 active | AID 540277; active means potentiation above 80%; inconclusive means 30% to 80%; inactive means below 30%; note: 0% is about no effect
# Target sequence (Q8NER1 whole entry, looked up): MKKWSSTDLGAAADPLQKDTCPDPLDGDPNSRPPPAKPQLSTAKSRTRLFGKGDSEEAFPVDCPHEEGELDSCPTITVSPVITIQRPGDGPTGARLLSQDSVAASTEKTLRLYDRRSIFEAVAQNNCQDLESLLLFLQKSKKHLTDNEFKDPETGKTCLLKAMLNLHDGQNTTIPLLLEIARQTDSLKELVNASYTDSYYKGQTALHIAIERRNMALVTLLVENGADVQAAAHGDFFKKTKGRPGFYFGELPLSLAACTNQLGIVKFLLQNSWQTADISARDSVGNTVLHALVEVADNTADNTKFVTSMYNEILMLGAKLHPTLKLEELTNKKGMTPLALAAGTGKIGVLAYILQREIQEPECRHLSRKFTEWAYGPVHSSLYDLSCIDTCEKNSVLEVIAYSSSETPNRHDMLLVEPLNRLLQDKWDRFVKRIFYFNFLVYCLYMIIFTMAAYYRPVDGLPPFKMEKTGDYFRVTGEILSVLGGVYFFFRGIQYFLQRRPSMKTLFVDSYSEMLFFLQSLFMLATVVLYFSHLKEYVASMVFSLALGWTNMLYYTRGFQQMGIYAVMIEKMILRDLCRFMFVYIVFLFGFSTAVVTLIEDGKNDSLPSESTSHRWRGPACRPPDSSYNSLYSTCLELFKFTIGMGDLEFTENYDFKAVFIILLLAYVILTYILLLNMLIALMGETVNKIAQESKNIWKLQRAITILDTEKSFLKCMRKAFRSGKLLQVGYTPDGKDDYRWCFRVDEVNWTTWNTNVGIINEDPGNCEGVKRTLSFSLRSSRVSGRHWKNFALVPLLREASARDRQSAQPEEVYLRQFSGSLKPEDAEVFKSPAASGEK
#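 TRPV1-expressing cells were cultured overnight at 35.5C and loaded with Fluo-8 calcium dye for 40 to 90 min at room temperature. After a 10 s baseline, compound was added and calcium influx was read kinetically for 3 min (ex 480/em 520 nm).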
# gsp ag = agonists of gsp mutant (McCune-Albright syndrome). gsp mutant cells, cAMP HTRF, 30 min; control for the full effect not named in the record. Potency, µM (doses to about 76.9 µM), inactives show top-dose activation (cAMP increase), actives largely listed as activators. 0.13% of 340,000 active. AID 624287; active = well fitted activation curve with a large enough effect; inconclusive = small, poorly fitted or top-dose-only effect, or another doubt; inactive = no such curve, though single readings can be large or run the other way; cell line not stated here;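 note: phosphodiesterase inhibitor Ro 20-1724 added with compounds to block cAMP breakdown; potency is the fitted concentration of half-maximal effect; nearly all actives have a fitted effect of over 60% in size; about a fifth of the inactives were tested at one dose only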
#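 Cells in DMEM/10% FBS with G418 were pretreated with compounds in DMSO plus […] (300 uM stock) for 30 min at 37C. cAMP was measured by HTRF (cAMP-d2 plus anti-cAMP antibody-K) after 30 min at room temperature.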
# gsp antagonist = antagonists of gsp mutant (McCune-Albright syndrome); gsp-mutant cells, cAMP HTRF, 30 min; control for the full effect not named in the record; Potency, µM (highest dose often 76.9 µM), inactives show top-dose activity change, negative = inhibition, hits mostly inhibitors; 0.4% of 340,000 active; AID 624288; active = falling curve of any shape with a large fitted effect; inconclusive = falling curve, mostly with a smaller effect; inactive = flat or rising curve; cell line not stated here;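 note: intracellular cAMP measured with PDE inhibitor Ro 20-1724 present during compound exposure; potency is the fitted concentration of half-maximal effect; % is set by controls: 0 for no effect and ±100 for the full control effect; nearly all actives have a fitted effect of over 65% in size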
#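 G418-selected cells were plated in DMEM/10% FBS for 16-24 h at 37C, then treated with compounds plus the PDE inhibitor […] (300 uM solution added) for 30 min at 37C. Intracellular cAMP was measured by HTRF after 30 min lysis at room temperature.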
# Menin-MLL FL inh = menin-MLL binding inhibition, fluorescein peptide; FP activity change, % at 61.4 µM; 290,000 tested, under 10 active; Fluorescence polarization, fluorescein-MLL peptide displacement from menin; inconclusive = falling polarisation curve, or a change in total fluorescence; inactive = total fluorescence flat and polarisation flat or rising; no compound was filed as active; the % refers to the polarisation; negative = inhibition;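 note: % of control where 0% means no effect; inhibitors lower the polarisation; unlabelled MLL peptide was the positive control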
# Sfp PPTase inh = Sfp phosphopantetheinyl transferase inhibition; Potency, µM, for inactives: max response, negative = inhibition, usual class: inhibitors; AID 1490; 3.5% of 310,000 active; Q9F4F7; Biochemical Sfp PPTase activity, qHTS; active = well fitted inhibition curve with a large enough effect; inconclusive = small, poorly fitted or top-dose-only effect, or another doubt; inactive = no such curve, though single readings can be large or run the other way;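 note: the enzyme is Sfp with the accession as filed and its product quenches rhodamine fluorescence; potency is the fitted concentration of half-maximal effect; 0% = enzyme reaction without inhibitor and -100% = no enzyme wells; top concentration of the series not given in the record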
#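 Fluorescence-quenching assay with 15 nM Sfp, 5 uM rhodamine-CoA and 12.5 uM BHQ-2-labelled ybbR peptide in pH 7.6 Hepes/MgCl2 buffer. Enzyme was pre-incubated with compound for 15 min at room temperature. Rate was taken from the 30-min fluorescence change (525/598 nm).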
# ClpP mod = qHTS Assay for Activators of ClpP; purified B. subtilis ClpP, FRET peptide cleavage, 20 min; Potency, µM (doses to about 57.5 µM), for inactives: at the highest dose activity change, negative = active; 1.9% of 340,000 active; AID 651965, 2013; active = well fitted falling curve with a large enough effect; inconclusive = small, poorly fitted or top-dose-only effect; inactive = no such curve, though single readings can be large or run the other way; note: potency is the fitted concentration of half-maximal effect; the source files actives as falling curves though it sought activators and does not explain the sign; nearly all actives have a fitted effect of over 65% in size; many hits overshoot -100%
# Target sequence (P80244 whole entry, looked up): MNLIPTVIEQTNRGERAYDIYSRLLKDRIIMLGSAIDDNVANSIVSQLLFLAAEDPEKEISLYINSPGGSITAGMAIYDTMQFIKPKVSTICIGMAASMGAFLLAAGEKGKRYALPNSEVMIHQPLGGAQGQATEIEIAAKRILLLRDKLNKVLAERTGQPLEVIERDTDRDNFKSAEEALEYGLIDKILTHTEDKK
#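 Purified B. subtilis ClpP, 10 microg/mL final in Tris/HCl pH8 with KCl, BSA, glycerol and Tween-20, cleaved an Abz/nitrotyrosine-quenched decapeptide. Fluorescence (ex 320, em 430) was read at 0 and 20 min at room temperature. Delta was normalized to 5.8 microM ADEP and DMSO/no-enzyme controls.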
# * marks the source's active call; other numbers are inactive results; ? = inconclusive; . = not tested or not shown; [ ] = remark or other dose.
SMILES,CtBP-E1A inh,TRPV1 PAM,gsp ag,gsp antagonist,Menin-MLL FL inh,Sfp PPTase inh,ClpP mod
O=C(c1ccc(Br)o1)N1CCN(c2ccccn2)CC1,-16,3,1%,-3%,5.5,25µM*,-7.0%
CCCCCn1c(CN2CCCCC2C)nc2c1c(=O)n(C)c(=O)n2C (centres undefined),9,-18,10%,-9%,4.7,15%,0.6%
O=C(Nn1nnnc1Nc1ccccc1)C12CC3CC(CC(C3)C1)C2,3,4,-7%,7%[15.4 µM],1.6,16%,-1.5%
Cn1c(=O)c2c(nc(N3CCCC3)n2CC(O)CO)n(C)c1=O (centres undefined),0,4,-4%,-1%,5.3,10%,2.9%
Cc1cc(C)n(CC(C)(O)c2ccccc2)n1 (centres undefined),.,-27,6%,8%,.,.,-3.2%
COC(=O)c1[nH]c2cccc(Cl)c2c1NC(=O)CN(C)C1CCCCC1,0,-25,?,-2%,1.9,-21%,-6.8%
Cc1ccc(-n2c(COc3c(C)cccc3C)nnc2SCC(=O)Nc2nccs2)cc1,1,1,2%,10%,1.0,27%,0.7%
Cc1ccccc1S(=O)(=O)c1c(C)cc(C)n(CC(C)C)c1=O,15,-14,-10%,?,3.7,10%,-1.3%
CC(C)CC(NC(N)=O)C(=O)Nc1ccc2c(c1)OCO2 (centres undefined),-2,-1,-31%[inhibitor],10%,-1.2,-4%,-0.4%
c1ccc(-c2nc(CSc3nnc(-c4cccs4)o3)cs2)cc1,-2,11,-6%,-19%,-2.0,-10%,-11%
O=C(NCc1ccc(OC(F)(F)F)cc1)C1CC(c2ccccc2C(F)(F)F)=NO1 (centres undefined),5,-62,.,-1%,1.6,12%,-0.1%
CN(Cc1ccccc1)C(=O)c1ccc(NC(=O)Cc2cccc(NC(=O)C3CCN(C(=O)C4CC4)CC3)c2)cc1,-25,-10,-3%,2%,.,.,-3.9%
Cc1ccc(Nc2nc(N)c([N+](=O)[O-])c(N3CCOCC3)n2)cc1,-12,12,-39%,-2%,1.7,-2%,-1.8%
Cc1cc(C)nc(Nc2nc3ccccc3s2)n1,8,5,3%[15.4 µM],10%,0.8,21%,.
CCCCCCNC(=O)C(C(=O)OCC)C1CCCCC1 (centres undefined),3,10,-32%[inhibitor],-3%,1.9,-13%,-1.0%
CCCCC1CCC(/C(N)=N/O)CC1 (centres undefined),-1,0,-4%,4%,2.6,-13%,4.4%
COCc1cc(C)nc2sc(C(=O)NC3CCCCC3)c(N)c12,0,.,1%,5%,-7.6,?,-1.0%
CC(C)(C)C1CCc2c(sc3ncn(N)c(=N)c23)C1 (centres undefined),-8,-3,?,2%,4.2,2%,-4.9%
CCN1CCN(C(=S)Nc2cc(S(=O)(=O)N(CC)CC)ccc2C)CC1,.,-1,9%,5%,-0.4,6%,3.3%
O=C(Nc1ccnn1C1CCN(C(=O)Cc2ccccc2F)CC1)C1CC1,-4,1,11%[15.4 µM],8%,-5.3,7%,-20%
O=C(O)c1c(-c2ccccc2)c(-c2ccccc2)nc2ccccc12,.,-4,6%[15.4 µM],3%,-3.3,0%,.
Cc1nc(-c2cccc(NC(=O)C3CCCCC3)c2)cs1,.,-3,-22%,9%,0.9,2%,-5.5%
Cc1ccc(C(=O)NC2CCN(CCCC(=O)c3ccc(F)cc3)CC2)cc1,8,8,-20%[15.4 µM],-3%,-0.5,1%,2.9%
O=C(CSc1nc2sc3c(c2c(=O)n1-c1ccccc1)CCCC3)N/N=C/c1ccc(C(=O)O)cc1,27,6,?,-10%,0.4,-1%,?
Cc1cc2cc(CCNC(=O)C(C)C)c(=O)[nH]c2cc1C,3,.,-35%[inhibitor],4%,.,.,-12%
CCc1nnc(NC(=O)CSc2nnc(-c3ccccc3O)o2)s1,.,9,-12%[15.4 µM],-3%,14,-7%,.
COc1ccc(S(=O)(=O)N2CCCOC2CNC(=O)C(=O)NC2CCCC2)cc1 (centres undefined),6,4,2%[15.4 µM],-2%,.,5%,-1.2%
CC(C)C[C@H](NC(=O)N1CCn2c1nc1ccccc12)C(=O)N1CCCCC1,.,-15,13%,7%,-3.0,2%,0.7%
Cc1ccc(-c2nnc(SCC(=O)Nc3sc(C)c(C)c3C#N)n2C)cc1,9,-5,-4%,-8%,3.2,-6%,-3.1%
COc1cccc(C(=O)Nc2cccc(-c3nc4ncccc4o3)c2C)c1,7,26,0%,?,3.7,2%,-3.1%
CCn1nc(C)c(/C=N/NC(=O)Cc2ccc(Cl)cc2)c1C,8,2,1%[15.4 µM],13%,3.3,7%,-0.7%
Nc1nonc1-c1nc2ccccc2n1CC(=O)N/N=C\c1ccc(-c2ccc(Cl)cc2)o1,-2,-9,14%,7%,11,?,-19%
O=C(NCC1CCCO1)C1CCN(C2CCN(C(=O)CC3CCCC3)CC2)CC1 (centres undefined),0,-4,-4%[15.4 µM],-1%,-0.3,2%,.
CC(C)CC(=O)NC(=S)Nc1cc(C(F)(F)F)ccc1N1CCOCC1,7,-4,-4%,-4%,-1.7,18%,-3.1%
Cc1cc(Cl)ccc1C(=O)C1CCCN(C(=O)CCN2CCCO2)C1 (centres undefined),2,5,-14%,-2%,-0.7,18%,.
Cc1nn(CC(=O)Nc2nccs2)c(C)c1[N+](=O)[O-],.,4,1%,8%,-1.6,3%,-1.7%
CCCN(C(=O)/C=C/c1ccc(S(=O)(=O)N(CC)CC)cc1)C1CCS(=O)(=O)C1 (centres undefined),-6,.,-3%,0%,.,.,1.0%
CCN(CC)S(=O)(=O)c1ccc(NC(=O)Cn2c(=O)sc3ccccc32)cc1,-5,-3,-43%,6%,3.0,-8%,2.1%
CCOc1ccc(C(=O)Nc2nc(C)c(C(=O)OC)s2)cc1,11,.,0%,-12%,2.3,0%,.
Cc1ccccc1-c1nnc(-c2ccc(Br)cc2)o1,10,-6,5%,-3%,4.2,-1%,?
CCN(CC)C(=O)c1ccc(CS(=O)(=O)c2ccc(OC)cc2)o1,-2,-2,-6%,2%,-6.3,5%,-0.5%
Oc1ccccc1CN1CCN(C(c2ccccc2)c2ccccc2)CC1,.,-8,2%,3%,4.5,-13%,-4.1%
C[C@@H]1CN([C@@H](C)CO)C(=O)CCCn2nncc2CO[C@H]1CN(C)C(=O)Nc1cccc(Oc2ccccn2)c1,-14,.,11%,.,.,.,-1.9%
NC(=O)Nc1ccc(Oc2ncc(C(F)(F)F)cc2Cl)cc1,5,-1,6%[15.4 µM],9%,-2.7,12%,.
CCOC(=O)c1c(-c2ccc(C)o2)csc1NC(=S)NC(=O)c1ccc(F)cc1,-5,9,19%,-3%,5.9,8%,-2.8%
CN(C(=O)COn1nnc2ccc(S(=O)(=O)N3CCOCC3)cc21)c1ccccc1,6,-6,13%[15.4 µM],1%,.,.,4.6%
CCc1ccc(NC(=O)c2ccccc2Br)cc1,16,-18,-1%[15.4 µM],.,1.4,4%,.
N#C/C(=C\c1sc(N2CCOCC2)nc1-c1ccccc1)C(=O)Nc1cccc2ccccc12,.,-4,.,.,?,?,.
Cc1ccccc1OCCC(=O)N(CC(C)C)c1c(N)n(Cc2ccccc2)c(=O)[nH]c1=O,-8,8,17%,-15%,.,.,1.1%
CC1CCCC(NC(=O)COc2ncnc3ccccc23)C1C (centres undefined),-3,.,?,8%,.,.,-1.6%

# New compounds follow:
SMILES,CtBP-E1A inh,TRPV1 PAM,gsp ag,gsp antagonist,Menin-MLL FL inh,Sfp PPTase inh,ClpP mod
O=C(CCNC(=O)C1CCN(S(=O)(=O)c2ccccc2)CC1)NCc1ccc(Cl)cc1,.,5,1%,13%,.,10%,-0.5%
COc1cc(-c2nnc(CSc3nc4ccccc4s3)o2)cc(OC)c1OC,.,-17,.,.,?,-14%,.
C=CCNC(=O)CCC(=O)NNc1nc2ccccc2c2nc(-c3ccccc3)nn12,.,-3,-143%[inhibitor],-13%,-0.1,3%,-3.9%
O=C(c1nc2ncccn2n1)N1CCN(c2ccc(F)cc2)CC1,1,0,41%,?,1.6,10%,-0.2%
CCCn1c(N)c(C(=O)CSc2nnc3n2CCCCC3)c(=O)n(C)c1=O,0,5,-11%,0%,.,.,-0.5%
CCN1C(=O)[C@H]2[C@@H](c3ccc(-c4cccc(Cl)c4)c(OC)c3)N3CCC[C@@]3(C(=O)OC)[C@H]2C1=O,-2,.,.,?,.,.,4.3%
O=C(CN(Cc1ccccc1)S(=O)(=O)c1ccccc1)N/N=C/c1ccccc1[N+](=O)[O-],-17,8,-33%[inhibitor],-12%,-1.4,8%,-0.6%
O=C(NCC1CCCO1)c1c(O)nc2sccn2c1=O (centres undefined),2,-4,-18%[15.4 µM],-1%,.,.,.
COc1ccc(C(c2nnnn2C2CCCC2)N2CCC(C)CC2)c(OC)c1 (centres undefined),-1,-16,-5%,-1%,-2.7,5%,18µM*
COc1ccccc1NC(=O)C1=C(C)NC(=O)NC1c1cccc(OC)c1OC (centres undefined),10,-18,?,-5%,3.0,-11%,-2.7%
COc1cc(CN(C)c2ncnc3sccc23)ccc1OC(F)F,10,5,-5%[15.4 µM],-2%,.,-1%,0.6%
CCOC(=O)C1=C(CC)Nc2ccccc2N=C1NC(=O)c1ccc(C)c(S(=O)(=O)N2CCOCC2)c1,-2,8,-8%,-7%,.,.,3.3%
COc1ccc(-c2noc(CCC(=O)N3CCN(c4cccc(C)c4)CC3)n2)cc1,-4,.,.,-8%,.,.,0.3%
COc1cccc(CNC(=O)CCC2CCCN(C(=O)c3ccc(F)c(Cl)c3)C2)c1 (centres undefined),-3,-27,9%[15.4 µM],-6%,-0.1,2%,-2.0%
CC1CCN(C(=O)CCNC(=O)c2ccccc2Cl)CC1,7,-5,?,5%,.,16%,-1.1%

# Structures listed above that bear a hit mark in Sfp PPTase inh.
SMILES	CtBP-E1A inh	gsp ag	gsp antagonist	Menin-MLL FL inh	Sfp PPTase inh
O=C(c1ccc(Br)o1)N1CCN(c2ccccn2)CC1	-16	1%	-3%	5.5	25µM*

# The order is random; 5.3% or so of the library scored in one or more.
